High-throughput results: PubChem BioAssay, Johns Hopkins Ion Channel Center
KCNQ2 block: KCNQ2 channel blockers in CHO-K1 cells – cell-based, FluxOR thallium flux, B-score, primary screen (AID 2156). B-score at 10 µM. 20 min; active compounds read low; only compounds with negative scores are shown here; some inactives read as strong as hits. actives 1.1% (n = 310,000);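 active means fluorescence ratio B-score at most minus 3 library SDs, with starting brightness B-score within 2 library SDs, cut at about -5.5 in these data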
Target sequence (O88943 whole entry, looked up): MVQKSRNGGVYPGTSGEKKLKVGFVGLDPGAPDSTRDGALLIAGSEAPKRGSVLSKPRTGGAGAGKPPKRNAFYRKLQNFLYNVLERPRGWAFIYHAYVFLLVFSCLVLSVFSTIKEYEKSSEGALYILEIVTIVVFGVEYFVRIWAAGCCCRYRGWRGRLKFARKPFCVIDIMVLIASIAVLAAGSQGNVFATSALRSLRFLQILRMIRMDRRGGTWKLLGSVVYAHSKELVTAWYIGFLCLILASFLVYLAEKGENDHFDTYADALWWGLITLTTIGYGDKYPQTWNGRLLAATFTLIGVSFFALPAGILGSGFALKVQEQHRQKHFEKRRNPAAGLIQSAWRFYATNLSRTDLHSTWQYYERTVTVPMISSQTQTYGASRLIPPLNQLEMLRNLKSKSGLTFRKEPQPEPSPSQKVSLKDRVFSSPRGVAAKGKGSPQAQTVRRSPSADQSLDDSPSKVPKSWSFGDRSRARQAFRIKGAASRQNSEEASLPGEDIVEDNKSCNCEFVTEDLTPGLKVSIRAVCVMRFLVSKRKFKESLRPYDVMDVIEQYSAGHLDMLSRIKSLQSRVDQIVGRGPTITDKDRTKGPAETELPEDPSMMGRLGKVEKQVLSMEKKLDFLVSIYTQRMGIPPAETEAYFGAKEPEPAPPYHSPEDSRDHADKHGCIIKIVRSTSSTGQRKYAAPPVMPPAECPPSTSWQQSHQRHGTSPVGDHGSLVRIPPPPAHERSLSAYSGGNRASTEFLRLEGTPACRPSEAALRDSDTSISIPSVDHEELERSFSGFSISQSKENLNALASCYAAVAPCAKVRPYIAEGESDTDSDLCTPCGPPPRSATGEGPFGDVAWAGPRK
KCNQ2 block baseline: recorded beside KCNQ2 block, whose call it bears; B-score; measured here: initial fluorescence intensity artifact check;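 brightness before thallium and not channel activity; 0 = typical well and far values either way flag optical interference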
* marks the source's active call; other numbers are inactive results; i = inactive. An excerpt, so the mix of outcomes need not match the whole.

SMILES	KCNQ2 block	KCNQ2 block baseline
CCN1C(=O)C(C)S/C1=N\S(=O)(=O)c1ccc(F)cc1 (configuration not stated)	i	0.14
O=c1[nH]c2ccccc2cc1-c1noc(-c2cccnc2)n1	i	2.28
COc1cc2c(cc1OC)C1(NCC2)C(=O)Nc2ccccc21 (configuration not stated)	i	0.04
COCCOC(=O)C1=C(C)NC2=C(C(=O)CC(C)(C)C2)C1c1cc2c(cc1Br)OCO2 (configuration not stated)	i	-0.05
O=[N+]([O-])c1ccc(C[n+]2cc(-c3ccc(Cl)c(Cl)c3)n3c2CCCCC3)cc1	i	0.6
CN1CCN(C(=O)C2CCC(=O)N(Cc3cccc(C(F)(F)F)c3)C2)CC1 (configuration not stated)	i	0.88
CCc1cc2c(=O)[nH]c(-c3ccncc3)nc2s1	i	1
COc1cc(OC)c(NC(=O)Cn2cccc2)cc1Cl	i	1.03
O=C(Nc1cccc(C(F)(F)F)c1)C1(c2ccccc2)CC1	i	0.55
CCCN(CCO)Cc1ccc(Cl)c(Cl)c1	i	-1.6
O=C(CNC(=O)C1CCCCC1)NNC(=O)c1ccc(Cl)cc1Cl	i	-0.01
CCOC(=O)N(NC(=O)C(O)(C(C)C)C(C)C)c1ccccc1	i	0.06
COc1ccc(Cl)cc1NCCC(O)c1ccc(F)cc1 (configuration not stated)	i	1.43
Cc1cc(C(=O)Nc2ccccc2)oc1C	i	-0.31
Cc1ccc(NC(=O)N(CCCN2CCOCC2)Cc2cccs2)cc1C	i	2.22

Shown with bars between the fields: part of the list above
smiles | KCNQ2 block | KCNQ2 block baseline
COc1ccc(Cl)cc1NCCC(O)c1ccc(F)cc1 (configuration not stated) | i | 1.43
Cc1cc(C(=O)Nc2ccccc2)oc1C | i | -0.31

Other structures.
SMILES	KCNQ2 block	KCNQ2 block baseline
C/C(CC(=O)Nc1cccc(C(F)(F)F)c1)=N\NC(=O)Cc1ccccc1	i	0.68
COC(=O)C1(CCSC)NC(c2ccccc2F)C2C(=O)N(c3ccc4c(c3)OCCO4)C(=O)C21 (configuration not stated)	i	1.85
CCOc1ccccc1NC(=O)COn1nnc2ccc(Cl)cc21	i	0.16
CC(C)(C)N1NC2(CCCCC2)NC1=S	i	0.14
CCOc1ccc(CCNC(=O)COC(=O)c2nccnc2N)cc1OCC	i	0.06
CS(=O)(=O)N(Cc1ccc(C(=O)NN=C2CCCC2)cc1)c1ccccc1	i	0.96
Nc1nnc(SCC(=O)N2CCN(c3cccc(Cl)c3)CC2)n1-c1ccccc1	i	1.1
Cn1cc(CN2CCCC(C(=O)c3ccc(-c4ccccc4)c(F)c3)C2)cn1 (configuration not stated)	i	-1.14
Cc1ccc(S(=O)(=O)n2c(CN3CCCC(C)C3)nc3ccccc32)cc1 (configuration not stated)	i	-0.88
O=C(CSc1nc2ccc(Cl)cc2[nH]1)c1ccc2c(c1)OCO2	i	0.83
S=C(NCCNCc1ccccc1)NC1CCCCC1	i	1.98
C/C(N)=C(/C#N)C(=O)COC(=O)c1cc(-c2cccc(Br)c2)nc2ccccc12	i	0.5
O=C(CCN1c2ccccc2Sc2ccccc21)Oc1ccccc1	i	-0.4
Cc1ccc(Nc2nc3c(s2)CCC3)c(C)c1	i	-0.03
Oc1ccc(Br)cc1-c1cc(-c2ccccc2)n[nH]1	i	-0.39

Entries of single compounds, quoted from the list:
O=C(CSc1nc2ccc(Cl)cc2[nH]1)c1ccc2c(c1)OCO2 as listed: KCNQ2 block: i; KCNQ2 block baseline: 0.83
COC(=O)C1(CCSC)NC(c2ccccc2F)C2C(=O)N(c3ccc4c(c3)OCCO4)C(=O)C21 (configuration not stated) as listed: KCNQ2 block: i; KCNQ2 block baseline: 1.85
CS(=O)(=O)N(Cc1ccc(C(=O)NN=C2CCCC2)cc1)c1ccccc1 as listed: KCNQ2 block: i; KCNQ2 block baseline: 0.96

Next entries.
SMILES	KCNQ2 block	KCNQ2 block baseline
COc1ccc(F)cc1C(=O)C1CCCN(C(=O)CCc2ccccn2)C1 (configuration not stated)	i	-0.1
N/C(=N\OC(=O)c1ccc2c(c1)OCO2)c1ccc([N+](=O)[O-])cc1	i	-0.42
CCC(=O)NCc1c(Cl)cccc1-n1cccc1	i	0.09
O=C(NCc1ccco1)c1ccc([N+](=O)[O-])o1	i	2.69
CCOC(=O)C1CCN(S(=O)(=O)c2ccc3c(c2)CCCN3C(C)=O)CC1	i	0.82
O=[N+]([O-])c1ccc(N2CCN(S(=O)(=O)c3ccccc3)CC2)cc1	i	1.27
Cc1noc(N)c1C(=O)Nc1ccccc1F	i	-0.49
CN(C)CCNC(=O)Cn1ccc2cc(S(=O)(=O)N3CCCCCC3)ccc21	i	1.4
COc1ccc(CCNC(=O)c2cc(-c3cc(Cl)ccc3O)n[nH]2)cc1OC	i	-0.28
Cc1ccc(NC(=O)CCNC(=O)c2ccc(Br)cc2)cc1S(=O)(=O)N1CCCCCC1	i	-1.13
CC(C)C(NC(=O)c1ccc(Cl)cc1)C(=O)NC1=NCCS1 (configuration not stated)	i	1.06
O=C(OCC(=O)N1CCN(C(=O)c2ccco2)CC1)c1cc(-c2ccc(F)cc2)nc2ccccc12	i	-0.46
CN(C)C(=O)c1ccccc1Sc1ccc(Cl)cc1Cl	i	0.89
COc1ccc(-c2cnc[nH]2)cc1	i	1.69
Cc1cc(C(=O)NCC(c2ccco2)N(C)C)ccc1[N+](=O)[O-] (configuration not stated)	i	0.32

Seven compounds drawn at random from those above:
SMILES	KCNQ2 block	KCNQ2 block baseline
COc1ccc(-c2cnc[nH]2)cc1	i	1.69
CCOC(=O)N(NC(=O)C(O)(C(C)C)C(C)C)c1ccccc1	i	0.06
O=C(Nc1cccc(C(F)(F)F)c1)C1(c2ccccc2)CC1	i	0.55
Cc1cc(C(=O)NCC(c2ccco2)N(C)C)ccc1[N+](=O)[O-] (configuration not stated)	i	0.32
COC(=O)C1(CCSC)NC(c2ccccc2F)C2C(=O)N(c3ccc4c(c3)OCCO4)C(=O)C21 (configuration not stated)	i	1.85
S=C(NCCNCc1ccccc1)NC1CCCCC1	i	1.98
O=C(NCc1ccco1)c1ccc([N+](=O)[O-])o1	i	2.69

Next section.
SMILES	KCNQ2 block	KCNQ2 block baseline
COc1ccc(NC(=O)COC(=O)CCCC2=NS(=O)(=O)c3ccccc3N2)cc1Cl	i	-0.28
CCOC(=O)c1c(C)[nH]c(C)c1C(=O)CSc1nc(N)cc(N)n1	i	-1
COc1ccc(NC(=O)CCCCCn2nnc3ccccc3c2=O)cc1	i	0.47
CC1=NN(C(N)=S)C(=O)C1N=Nc1cccc([N+](=O)[O-])c1 (configuration not stated)	i	-1.57
CCCNC(=O)CC1C(=O)N(Cc2ccccc2)C(C)c2nc3ccccc3n21 (configuration not stated)	i	2.96
CC(C)N1CCc2c(sc(NC(=O)c3ccc(S(=O)(=O)N4CCOCC4)cc3)c2C#N)C1	i	-1.31
Cc1ccc(C(=O)Nc2ccc(N3CCN(C(=O)c4cccs4)CC3)cc2)c(Cl)c1	i	0.83
Cn1c(SCC(=O)NCC2CCCO2)nc2c(c1=O)SCC2 (configuration not stated)	i	1.57
CCN1CCN(C(=O)c2cc3c(=O)n4ccccc4nc3s2)CC1	i	-0.48
C(=N\Nc1nc(-c2cccnc2)nc2ccccc12)/c1ccccc1	i	0.82
COc1ccccc1CNC(=O)CN(C)CC(=O)Nc1cccc(F)c1	i	-1.62
COC(=O)C(NC(=O)C(C)Oc1ccccc1)C(C)C (configuration not stated)	i	-0.79
O=[N+]([O-])c1ccc(-c2nnc3cccc(Cl)n23)cc1	i	0.44
COC(=O)Oc1c(Br)c(=O)oc2ccccc12	i	-0.03
Cc1ccc(O)c(NC(=O)c2ccco2)c1	i	-0.92
COc1ccc(C2=NN(C(=O)c3cccc([N+](=O)[O-])c3)C(c3cccc([N+](=O)[O-])c3)C2)cc1 (configuration not stated)	i	-0.9
CC(=O)Nc1sc(/C(C#N)=C/c2ccc(Cl)c(Cl)c2)nc1-c1ccc(C)cc1	i	13.5
CN(C)Cc1nnnn1-c1ccccc1	i	1.18
O=C(NC(=S)NC1CCS(=O)(=O)C1)c1ccccc1 (configuration not stated)	i	0.78
O=C(OC(C(=O)Nc1ccc(Cl)c(C(F)(F)F)c1)c1ccccc1)C1=COCCO1 (configuration not stated)	i	-0.24
CCc1nc2cccnc2n1-c1ccc(CC(=O)O)cc1	i	0.17
COc1ccc(C(=O)NC(CC(=O)O)c2cc([N+](=O)[O-])ccc2Cl)c(SC)c1 (configuration not stated)	i	1.15
COc1cc(OC)c(NC(=O)Cn2cnc3sc(C)c(S(=O)(=O)N4CCOCC4)c3c2=O)cc1Cl	i	-0.52
C=CCNc1nc(N(c2ccccc2)c2ccccc2)nc(-n2ccnc2)n1	i	-0.53
CCN(CC(=O)NCc1ccc(F)cc1)C(=O)/C=C/c1ccc(OC)c(S(=O)(=O)NC(C)C)c1	i	-0.3
O=C(COC(=O)c1ccccc1C(=O)N1CCN(c2ccccc2)CC1)Nc1ccccc1	i	-1.52
Cc1cc(NC(=O)CSc2nc3ccccc3c(=O)n2CCCC(=O)NCc2ccccc2)n[nH]1	i	-2.08
Cc1ccc(OCC(=O)N(Cc2cccc(Cl)c2)C2CCS(=O)(=O)C2)cc1C (configuration not stated)	i	-0.92
Cc1ccc2c(c1)N(S(=O)(=O)c1cc(-c3onc(C)c3C)ccc1C)CCO2	i	1.03
CCCOc1ccc(-c2nc(N)n[nH]2)cc1	i	0.09
CC(=O)Nc1cc2nc(C)n(Cc3ccccc3)c2nc1C	i	0.24
CCN1CCN(c2cc(C)c3cc(NC(=S)N4CCN(c5ccc(F)cc5)CC4)ccc3n2)CC1	i	-0.57
O=c1nc(/C=C/c2cc([N+](=O)[O-])ccc2Cl)cc(C(F)(F)F)[nH]1	i	0.19
CCCCN(CC)CCNC(=O)CNC(=O)Cn1ccc2ccccc2c1=O	i	0.27
COc1ccc(NC(=O)CN(C)C(=O)CCCc2nc3ccccc3s2)cc1	i	-0.02
CCCc1ccc(-c2cc(C(=O)NN3CCOCC3)c3ccccc3n2)cc1	i	-0.35
Cc1cccc(C(=O)O/N=C2/CC3CCC2(C)C3(C)C)c1 (configuration not stated)	-5.68*	-2.06*
COc1ccc2cc(CCNS(=O)(=O)c3ccc(NC(C)=O)cc3)c(=O)[nH]c2c1	i	-0.62
Cn1c(=O)[nH]c(=O)c2c1nc([N+](=O)[O-])n2Cc1ccccc1	-6.16*	-0.38*
CCOC(=O)Cc1c(C)[nH]n(-c2ccccc2)c1=O	i	0.2
O=C(NCCS(=O)(=O)N1CCN(c2ccccc2F)CC1)c1cc(=O)c2ccccc2o1	i	1.17
Clc1ccc(/C=N/Nc2nnc(Cl)c3ccccc23)cc1	i	0.22
COc1ccc(CN2CCC(CO)(CCOc3ccccc3)CC2)c(OC)c1C	i	1.27
CCOC(=O)Cc1csc(NC(=O)c2ccc(S(=O)(=O)N3CCCCC3)cc2)n1	i	0.24
Cc1ccc(S(=O)(=O)c2cc3ccccc3oc2=Nc2ccc3c(c2)OCCO3)cc1	i	-0.24
O=C(c1cccc(S(=O)(=O)N2CCOCC2)c1)N1CCCC1	i	0.1
CN(C[C@H](Cc1ccccc1)N(C[C@H](Cc1cccc2ccccc12)N(CCc1ccccc1)N=O)N=O)N=O	i	0.2
O=C(CSc1nnc(-c2ccncc2)n1CC1CCCO1)NCc1ccccc1 (configuration not stated)	i	0.46
COc1ccc(/C=C2/SC(=S)N(CC(=O)O)C2=O)cc1OCc1ccc(Cl)cc1	i	0.29
CC1CCN(C(=O)Cn2nnc(-c3cccs3)n2)CC1	i	0.75
O=c1c(Cc2ccc(F)cc2)c(O)ccn1CCCn1ccnc1	i	-0.35
CCOc1ccccc1NC(=O)c1nnn(-c2ccc3c(c2)OCCO3)c1N	i	-0.94
N#Cc1c(-c2ccc(Cl)cc2)c2c([nH]c1=O)-c1ccccc1OC2	i	0.47
CCOC(=O)C(CC)Sc1nnc2n1C(C)(C)Cc1ccccc1-2 (configuration not stated)	i	-1.57
CCOCCCNC(=O)C(c1ccc(C)cc1)N(Cc1ccc2c(c1)OCO2)C(=O)c1cnccn1 (configuration not stated)	i	-1
Cc1ccccc1Oc1nc2c(C)cccn2c(=O)c1/C=C(\C#N)C(=O)NC1CCS(=O)(=O)C1 (configuration not stated)	i	-1.35
O=C(Cn1cnc2ccccc21)N/N=C/c1cccnc1	i	0.26
O=C(CN1C(=O)NC2(CCCC2)C1=O)N1CCN(S(=O)(=O)c2ccccc2Br)CC1	i	-0.24
Cc1ccc2nc(NC(=O)Cn3cc4c(n3)CCCCC4)sc2c1	i	1.65
COc1ccc(-c2csc(NC(CO)c3nc4ccccc4n3CCOCCO)n2)cc1 (configuration not stated)	i	-0.7
(continued)
SMILES	KCNQ2 block	KCNQ2 block baseline
CC(=O)N(CN1C(=O)C2C3C=CC(C3)C2C1=O)c1cccc(Cl)c1 (configuration not stated)	i	1.35
COc1ccc(OC)c2c1C(=O)c1ccccc1C2=O	i	55.3
COc1ccc(C(=O)N2CCCC(CO)(Cc3ccccc3C)C2)o1 (configuration not stated)	i	-1.21
O=C(CCCN1C(=O)/C(=C/c2ccc(F)cc2)SC1=S)NCCCn1ccnc1	i	1.97
COc1ccccc1N1CCN(C2CCCN(Cc3ccc(Cl)cc3)C2)CC1 (configuration not stated)	i	0.59
N#Cc1ccccc1NC(=O)COC(=O)CCc1ccccc1	i	-1.16
CC(C)CN(CC(C)C)c1nnc(N)s1	i	0.41
CN(N)c1nc(N2CCCC2)nc(N2CCCC2)n1	i	-1.48
O=C(NCCC1CCCCN1S(=O)(=O)c1ccc(F)cc1)C(=O)NCc1cccnc1 (configuration not stated)	i	-0.04
NC(=O)C1CC(=O)N(c2ccc(OCC(=O)Nc3ccc(Cl)cc3)cc2)C1 (configuration not stated)	i	-1.44
Cc1ccc(N/C=C2\C(=O)N(c3ccc(F)cc3F)C(c3cccnc3)S2(=O)=O)cc1 (configuration not stated)	i	-1.57
